# Rce1 inhib: inhibitors of yeast Ras-converting enzyme | yeast membranes, quenched prenylated peptide cleavage fluorescence | calls only | Q03530 | 290,000 tested, 0.27% active;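 active means fall in fluorescence gain of 50% or more versus controls, with final raw signal at or below 3038400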;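 further: plate controls were neutral control wells for no effect and wells lacking membranes for full effect; tested at 10 µM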
# Target sequence (Q03530 whole entry, looked up): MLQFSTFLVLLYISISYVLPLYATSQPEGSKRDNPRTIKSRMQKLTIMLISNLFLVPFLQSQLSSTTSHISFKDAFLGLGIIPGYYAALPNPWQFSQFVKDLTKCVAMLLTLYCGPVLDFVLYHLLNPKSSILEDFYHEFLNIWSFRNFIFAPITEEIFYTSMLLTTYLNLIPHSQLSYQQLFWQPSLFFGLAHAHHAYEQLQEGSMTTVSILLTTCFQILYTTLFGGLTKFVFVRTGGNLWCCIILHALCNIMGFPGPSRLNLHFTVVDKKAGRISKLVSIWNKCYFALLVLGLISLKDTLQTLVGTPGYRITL
# eIF4H inh: inhibitors of RNA binding by human eIF4H; Q15056; eIF4H fluorescence polarization binding assay; inhibition, % at 35 µM; 290,000 tested, 0.94% active; AID 2012;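 active means 50% or more with normal probe brightness, or confirmed in later tests; about a fifth of its hits are not listed in these tables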;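 further: calls also rest on retests at 20 µM and on dose response follow-up; 0% = protein and probe with vehicle and 100% = probe without protein; strong numbers were not always called active; many hits fall short of the cut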
# HIV Env fusion: blocks HIV Env-driven cell-cell fusion | HeLa-JRFL Env/CEM21 cell fusion, luciferase | inhibition, % at 12.3 µM | 360,000 tested, 1.1% active | AID 651610;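 active means mean replicate inhibition score of at least 50 and every replicate individually at or above 50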;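 further: 0% = plate neutral controls and 100% = maraviroc near 300 nM; one replicate is shown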
# CSC inhib: cancer stem cell inhibition; cancer stem cell-like cells viability, luminescence; inhibition, % at 7.5 µM; 300,000 tested, 1.1% active;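 active means mean at 75% or more and at least half the replicates too; tested in HMLE shEcad cells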;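 further: 0% = median of negative and 100% = median of positive control wells; the first replicate is given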
# Yeast UUG start: modulators of start codon recognition fidelity in yeast; S. cerevisiae UUG-firefly luciferase reporter, luminescence/redox ratio; activity score, % at 18.7 µM; 350,000 tested, 0.13% active; AID 602363;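 active means replicate mean at a twofold rise or more, about +100% in these data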;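 further: firefly luciferase made from a UUG start codon reports start codon fidelity; reporter light over untreated wells divided by growth signal over untreated wells; some hits fall short of that in this replicate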
# PABP polyA inh: blocks human PABP binding to poly(A) RNA; P11940; fluorescence polarization; inhibition, % at 35 µM; 290,000 tested, 1% active; AID 2014;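 active means 50% or more with normal probe brightness, or confirmed in later tests; about a fifth of its hits are not listed in these tables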;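 further: calls also rest on retests at 20 µM and on dose response follow-up; controls were probe without protein and protein plus probe with vehicle; some compounds called inactive have numbers as strong as hits; many hits fall short of the cut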
# Target sequence (P11940 whole entry, looked up): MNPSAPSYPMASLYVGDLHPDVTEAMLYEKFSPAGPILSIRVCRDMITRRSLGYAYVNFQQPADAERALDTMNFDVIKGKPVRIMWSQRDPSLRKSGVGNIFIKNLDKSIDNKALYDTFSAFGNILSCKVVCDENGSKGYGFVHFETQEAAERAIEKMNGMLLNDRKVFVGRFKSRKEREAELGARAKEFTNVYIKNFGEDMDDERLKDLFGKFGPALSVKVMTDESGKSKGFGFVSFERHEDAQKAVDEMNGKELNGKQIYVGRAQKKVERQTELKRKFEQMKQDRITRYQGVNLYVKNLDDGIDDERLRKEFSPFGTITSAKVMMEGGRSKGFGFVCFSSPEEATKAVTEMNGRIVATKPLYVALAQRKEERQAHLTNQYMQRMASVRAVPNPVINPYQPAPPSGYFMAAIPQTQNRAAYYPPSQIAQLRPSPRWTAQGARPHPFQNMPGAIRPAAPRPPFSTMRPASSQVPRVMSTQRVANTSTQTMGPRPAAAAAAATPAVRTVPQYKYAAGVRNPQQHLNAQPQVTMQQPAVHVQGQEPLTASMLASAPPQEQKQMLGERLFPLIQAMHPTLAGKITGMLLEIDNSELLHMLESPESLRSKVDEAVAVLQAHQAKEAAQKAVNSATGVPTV
# MT1-MMP act inh: inhibitors of human MT1-MMP activation | P50281 | HT1080 RFP-PRO-GFP cells, GFP/RFP ratio fluorescence, overnight; percent of plate control window, DMSO zero | GFP/RFP ratio change, % at 20 µM | 360,000 tested, 0.061% active | AID 651647;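 active means GFP/RFP ratio change of at least 30% with cell ATP level not reduced by more than half and red fluorescence within 50% of control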; further: strong numbers were not always called active
#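 Assay system: HT1080 RFP-PRO-GFP cells | Dosing: 20 µM single dose, 1% DMSO | Incubation: Cells overnight before dosing, compound overnight, 37 °C, 5% CO2 | Evaluation: GFP/RFP fluorescence ratio | Control set: DMSO-only wells and HT1080 RFP-L50D-GFP cell wells as references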
# eIF4H inh retest: recorded beside eIF4H inh, whose call it bears; inhibition, %; compound at 20 µM; confirmation average;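 mean of two retest wells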
# PABP polyA inh retest: recorded beside PABP polyA inh, whose call it bears; inhibition, %; compound at 20 µM; confirmation repeats;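 mean of two retest wells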
# MT1-MMP act inh RFP: also measured in MT1-MMP act inh; calls as there; RFP signal change, %; measured here: RFP expression control read;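 0 = vehicle wells; hits needed this value within 50% of zero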
# An asterisk follows results filed as active; i = inactive; . = not tested or not shown.
SMILES,Rce1 inhib,eIF4H inh,HIV Env fusion,CSC inhib,Yeast UUG start,PABP polyA inh,MT1-MMP act inh,MT1-MMP act inh RFP,others
O=C1Cn2c(nc3ccccc32)N1c1ccccc1F,i,-3,-1,-21,-3,2,4,2,
COc1ccccc1OCCn1cc(C(=O)c2ccco2)c2ccccc21,i,-12,-5,-8,-8,4,3,-8,
Cn1cc(Cc2ccc(C(=O)NCc3ccccc3)cn2)c2ccccc21,.,.,-21,.,3,.,1,4,
Cc1ccc(Nc2c(-c3ccc(N(C)C)cc3)nc3ncccn23)cc1,i,-5,2,-8,-22,5,-29,-2,
COc1ccc(OC2(C)CCN(Cc3ccc(-c4ccccc4)o3)C2)cc1 (centres undefined),.,.,12,.,5,.,0,0,
CCN(CC)S(=O)(=O)c1ccc(N2CCOCC2)c(NC(=O)c2cc(-c3ccccn3)nc3ccccc23)c1,i,-13,26,.,.,-4,-12,-5,
NC(=NCc1ccco1)NC(=O)c1ccccc1,i,-13,-7,-9,-11,-5,-1,1,
CN(C)c1ccc(/C=N/n2c(C3CCCCC3)n[nH]c2=S)cc1,i,-3,-1,-9,1,2,-3,-5,
O=C(O/N=C1\CCS(=O)(=O)c2sccc21)c1ccccc1,i,-10,.,-3,-12,-7,4,6,
COc1ccc(/C=C/C(=O)OCC(=O)Nc2ccc(OC)c(S(=O)(=O)N3CCCCC3)c2)cc1,i,-9,.,-7,-17,-23,3,2,
COC(=O)CCC(=O)Nc1sc2c(c1C#N)CCCC2,i,-8,.,6,-10,-3,4,2,
CC(C)(C)C1CCc2onc(C(=O)Nc3cccnc3)c2C1 (centres undefined),i,-7,.,3,-18,-5,-6,-6,
CN(C)S(=O)(=O)N1C(=O)c2ccccc2C1=O,i,20,-6,1,3,-1,-3,0,
Cc1sc(NC(=O)Cn2[nH]c(=O)c3ccccc3c2=O)nc1-c1ccccc1,i,-1,4,8,.,-10,0,4,
COc1nc2ccccc2nc1CCC(=O)O,i,7,-19,4,-16,-1,-5,3,
N#Cc1nc(-c2ccco2)oc1N1CCN(c2ccccc2)CC1,i,-13,.,-1,-9,0,4,6,
CC1(C)CC(=O)C=C(c2ccc(Oc3ccccc3)cc2)C1=O,.,.,16,.,-2,.,0,-3,
Cc1onc(-c2c(Cl)cccc2Cl)c1/C(N)=N/OC(=O)C1CC1,i,-18,2,.,1,3,1,-1,
O=C1N/C(=N\S(=O)(=O)Cc2ccccc2)S/C1=C/c1cccc([N+](=O)[O-])c1,i,-7,3,11,-3,9,8,1,
COc1cccc(OC)c1OCCCCc1c(C)n[nH]c1C,.,-1,-1,-13,.,8,-4,-3,
CC1Oc2ccccc2C=C1/C=N\NC(=O)c1cccnc1 (centres undefined),i,8,-4,-9,-19,-6,4,0,
CCOC(=O)C1=C(COC(=O)/C=C/c2cccc(OC)c2)NC(=O)NC1C (centres undefined),i,2,-5,7,4,-1,-1,0,
Cn1c(=O)oc2cc(S(=O)(=O)N3CCN(Cc4ccc5c(c4)OCO5)CC3)ccc21,i,-8,25,-6,-8,-7,-1,-6,
Cc1cccnc1NC(=O)CN1C(=O)COc2ccc(Cl)cc21,i,4,21,5,-19,42,2,0,
Cc1nn(Cc2ccccc2Cl)c(Cl)c1/C=C/C(=O)OCC(=O)NC1CCS(=O)(=O)C1 (centres undefined),i,-5,0,-2,-7,4,0,-3,
Cc1ccc(S(=O)(=O)Nc2c(C)nn(C)c2C)cc1C,i,.,27,-4,-10,.,-2,-13,
O=C(CN1CCC(n2nnc3cc(F)ccc32)CC1)NNC(=O)c1ccccc1,i,-9,.,-14,-17,-2,-2,-2,
Cc1ccc2nc(-c3sc4nc(C)ccc4c3N)[nH]c2c1,i,-5,-346,-3,-68,0,10,-2,
COc1cc(CCC(=O)OCC(=O)Nc2cccc(S(N)(=O)=O)c2)cc(OC)c1OC,i,-8,-3,-12,.,-14,0,3,
Fc1ccc(-n2nnc(-c3ccccc3Br)n2)cc1,i,-10,-11,3,-14,-8,0,-1,
COC(=O)C1=C(C)OC(N)=C(C#N)C1c1ccccc1F (centres undefined),i,9,2,-1,-18,0,-7,-1,
CC(=O)c1sc(N/N=C\c2ccc(N(C)C)cc2)nc1C,i,-10,-457,0,-13,-13,-16,1,
COc1ccc(N2C(=O)CCC(C(=O)NCCCN3CCC(C)CC3)C2c2ccc(OC)c(OC)c2)cc1 (centres undefined),i,0,7,-3,-4,11,4,4,
CC(=O)NS(=O)(=O)c1ccc(NC(=O)c2ccc(Cl)cc2[N+](=O)[O-])cc1,i,9,-3,-8,-1,14,-4,-9,
COc1cc(CNC[C@H]2O[C@@H](n3cnc(C(N)=O)n3)[C@H](O)[C@@H]2O)ccc1OCc1cccc(Cl)c1,.,.,-4,.,-13,.,-2,1,
CSc1nsc(/C=C/Nc2ccc(F)cc2)c1C#N,i,77*,-19,34,.,2.7*,-38,8,eIF4H inh retest=100*;PABP polyA inh retest=57*
O=C(NCCNC(=O)c1ccc(Cl)cc1Cl)c1ccccn1,i,-3,-6,-5,-12,0,0,1,
Cc1cn([C@H]2C[C@H](O)[C@@H](CNC(=O)[C@@H]3C[C@H](F)CN3)O2)c(=O)[nH]c1=O,.,.,-3,.,-14,.,9,3,
Cc1cc(C)cc(NC(=O)c2ccc(Cn3nc(C)c(Cl)c3C)o2)c1,i,-3,49,23,3,-4,-2,-1,
CCc1ccc(N2CC(C(=O)Nc3ccc4c(c3)OCO4)CC2=O)cc1 (centres undefined),.,.,-8,6,-7,.,-2,0,
CN(c1ccc(OCC(=O)Nc2ccc3[nH]c(=O)[nH]c3c2)cc1)S(=O)(=O)c1ccc(Cl)cc1,i,0,-1,-2,-1,4,11,-1,
Cc1[nH]c2ccccc2c1C(c1ccccn1)N1CCC(C)CC1 (centres undefined),i,-3,.,-7,.,-9,-2,-1,
Cc1ccc(C)c(C(=O)CN2C(=O)C(=O)N(C3CCCC3)C2=O)c1,.,.,.,-4,1,.,-1,5,
CCOC(=O)C1(CCc2ccccc2)CCN(Cc2cccc3nccnc23)CC1,.,0,19,-1,.,2,-3,-10,
COC(=O)c1cccc(NC(=O)CN(c2ccc3c(c2)OCO3)S(C)(=O)=O)c1C,i,8,.,.,.,7,0,4,
CCOC(=O)c1c(NC(=O)Cc2ccccc2)sc2c1CCN(C)C2,i,-2,16,-8,-13,-10,-3,0,
CCC(c1nnnn1Cc1ccc(OC)cc1)N1CCN(c2ccc(OC)cc2)CC1 (centres undefined),i,3,-2,3,.,15,-3,-2,
COc1ccc(-n2nnnc2SCC(=O)NCCc2ccc(OC)c(OC)c2)cc1,i,8,.,-7,3,3,0,-3,

# Three entries picked at random from the list so far, as already listed:
SMILES,Rce1 inhib,eIF4H inh,HIV Env fusion,CSC inhib,Yeast UUG start,PABP polyA inh,MT1-MMP act inh,MT1-MMP act inh RFP,others
CN(c1ccc(OCC(=O)Nc2ccc3[nH]c(=O)[nH]c3c2)cc1)S(=O)(=O)c1ccc(Cl)cc1,i,0,-1,-2,-1,4,11,-1,
CCC(c1nnnn1Cc1ccc(OC)cc1)N1CCN(c2ccc(OC)cc2)CC1 (centres undefined),i,3,-2,3,.,15,-3,-2,
COc1ccc(-n2nnnc2SCC(=O)NCCc2ccc(OC)c(OC)c2)cc1,i,8,.,-7,3,3,0,-3,

# Additional entries
SMILES,Rce1 inhib,eIF4H inh,HIV Env fusion,CSC inhib,Yeast UUG start,PABP polyA inh,MT1-MMP act inh,MT1-MMP act inh RFP,others
NC(=O)c1sc2nc3c(c(-c4cccnc4)c2c1N)CCC3,i,16,.,-4,-19,29,1,0,
Cc1ccc(S(=O)(=O)N(C)CC(=O)Nc2nc3ccccc3s2)cc1,i,-3,39,-2,-9,-3,11,-7,
COCCNC(=S)N1CCC(C(=O)c2ccc(C)cc2)CC1,i,-6,-9,-5,-6,-10,4,-2,
COc1ccc(N2CCN(C(=O)CCNC(=O)c3ccc(Br)cc3)CC2)cc1,i,.,5,2,-21,.,-2,-3,
O=C(CSc1nnnn1Cc1ccccc1)c1ccccc1F,i,6,14,-16,.,0,1,3,
CCCCN(C(=O)CCC(=O)OCC(=O)NCc1ccccc1)c1c(N)n(CCC)c(=O)[nH]c1=O,.,.,.,1,8,.,2,6,
O=[N+]([O-])c1ccc(N2CCN(S(=O)(=O)Cc3ccccc3)CC2)cc1N1CCOCC1,i,-4,3,13,0,-14,3,-11,
CC(C)C(OC(=O)c1nsc(Cl)c1Cl)C(=O)NCC1CCCO1 (centres undefined),i,-7,15,.,-15,-8,-1,5,
Cc1nn2c(N)c(C#N)cnc2c1-c1ccccc1,i,1,.,-1,-26,-14,-7,-14,
CCN(CC(=O)Nc1c(F)cccc1F)C(=O)C(C)SCc1nc2sc(C)c(C)c2c(=O)[nH]1 (centres undefined),i,14,.,-6,-5,49,-2,2,
CCN(CC)CCN(Cc1cc2cc3c(cc2[nH]c1=O)OCCO3)C(=S)NCC(C)C,i,-13,0,-6,-20,2,-1,3,
CCOCCCNC(=O)CN1C(=O)/C(=C\c2ccc(C)cc2)Sc2ccccc21,i,1,-9,5,-13,2,-5,-6,

# No new results follow: an excerpt of the list.
SMILES,Rce1 inhib,eIF4H inh,HIV Env fusion,CSC inhib,Yeast UUG start,PABP polyA inh,MT1-MMP act inh,MT1-MMP act inh RFP,others
NC(=O)c1sc2nc3c(c(-c4cccnc4)c2c1N)CCC3,i,16,.,-4,-19,29,1,0,
Cc1ccc(S(=O)(=O)N(C)CC(=O)Nc2nc3ccccc3s2)cc1,i,-3,39,-2,-9,-3,11,-7,

# Further entries follow.
SMILES,Rce1 inhib,eIF4H inh,HIV Env fusion,CSC inhib,Yeast UUG start,PABP polyA inh,MT1-MMP act inh,MT1-MMP act inh RFP,others
COc1ccc(N2CCN(C(=O)COC(=O)[C@@H](NC(=O)c3ccccc3Cl)C(C)C)CC2)cc1,.,.,-3,.,9,.,0,-2,
Cc1ccccc1NC(=O)CSc1nc(N)c(C#N)c(-c2cccs2)c1C#N,i,-6,.,-9,-10,-2,4,-4,
Cc1ccc(C(=O)C2CCN(CC(=O)Nc3ccc(N(C)C)cc3)CC2)cc1,i,-2,25,9,.,-8,2,0,
CC(=O)c1ccc(NC(=O)CSc2nnc(-c3ccoc3C)n2Cc2ccccc2)cc1,i,-16,-25,.,-10,-8,18,-9,
CC(C)OCCCn1c(=S)[nH]c2ncccc2c1=O,i,-22,-17,.,-11,1,11,10,
COC(=O)c1cc(S(=O)(=O)N2CCN(c3cc(C)ccc3C)CC2)c[nH]1,i,6,6,22,-19,0,-2,3,
Cc1ccc(SCCNC(=O)c2ccccc2F)cc1,.,-3,5,-6,-10,1,-3,-1,
CN(CCOc1cccc(C(F)(F)F)c1)Cc1ccccc1,i,2,13,-1,.,4,-2,-1,
O=C(COC(=O)CNC(=O)c1sc2ccccc2c1Cl)Nc1c(Cl)cc(Cl)cc1Cl,i,0,-1,-15,-4,6,6,6,
CCOc1ccc(NC(=O)c2cccnc2SC)cc1,i,-2,2,.,-10,7,2,5,
O=C(O)c1cccc2c1-c1ccccc1/C2=N\Nc1ccccc1,i,-2,-46,7,-20,13,-5,3,
O=C(Nc1ccc2oc(=O)ccc2c1)c1ccccc1[N+](=O)[O-],i,3,-7,-19,.,-11,3,5,
O=C(Cc1coc2ccc3ccccc3c12)N1CCCC1,i,-8,.,-9,.,6,-1,1,
CC(C)OCCCNC(=O)c1cc(-c2cccs2)nc2ccccc12,i,3,10,14,-17,-6,4,4,
Cc1nc2cc(NC(=O)c3ccc(Br)s3)ccc2s1,i,-3,-229,-8,-26,-4,-5,-31,
CS(=O)(=O)N1CCN(Cc2cc(=O)n3ccsc3n2)CC1,i,3,-33,-11,-26,10,-1,4,
CCCOc1ccc(C(F)(F)F)cc1NC(=O)CN1C(=O)C(=O)N(CC)C1=O,.,.,0,-25,-14,.,3,1,

# Screens deposited in PubChem BioAssay by several laboratories.

# Not all compounds are listed; rates above refer to the full screens.
